# NOMO-1 viab: STK33 inhibitor candidate reducing NOMO-1 cell viability | NOMO-1 AML viability, CellTiter-Glo luminescence, 72 h | inhibition, % (no concentration beside the values) | actives 7.5% (n = 37,000);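 active = most replicates above 80%; inconclusive = exactly half above 80%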;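 also: wells of about 30 µL received 25 nL stock; 0% = median of vehicle wells and 100% = reference inhibitor level; the first replicate is given; inactives centre near 10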
# The depositor's hits bear a star; ? = inconclusive. An excerpt; count on the stated rates, not on these rows.
SMILES,NOMO-1 viab
COc1cccc(C(=O)NC(NCC2CCCO2)(C(F)(F)F)C(F)(F)F)c1 (stereo unspecified),22
C[C@H](CO)N1C[C@H](C)[C@@H](CN(C)Cc2ccc(C(=O)O)cc2)Oc2ccc(NC(=O)C3CCCCC3)cc2C1=O,32
CCOC(=O)c1c(C2COc3ccccc3O2)csc1NC(=O)c1ccco1 (stereo unspecified),?
Cc1cc(N(CC(=O)Nc2cccc([N+](=O)[O-])c2C)S(C)(=O)=O)ccc1Br,7
C[C@H](CO)N1C[C@H](C)[C@@H](CN(C)S(=O)(=O)c2ccc(Cl)cc2)Oc2c(cccc2N(C)C)C1=O,15
CCOc1ccc(N2C(=O)CC(SCc3nc4ccccc4[nH]3)C2=O)cc1 (stereo unspecified),-9
C[C@@H]1CN([C@@H](C)CO)C(=O)c2cc(NS(C)(=O)=O)ccc2O[C@@H]1CN(C)S(=O)(=O)c1cn(C)cn1,6
COC(=O)c1sc(S(=O)(=O)NCc2ccccc2)c(C(=O)OC)c1C,51
Cc1ccc(NC(=O)c2ccc(NCc3cccnc3)c([N+](=O)[O-])c2)cc1,24
C[C@@H]1CN([C@H](C)CO)C(=O)c2cccc(NS(C)(=O)=O)c2O[C@@H]1CN(C)Cc1ccncc1,-22
COc1ccc(S(=O)(=O)Nc2ccc3c(c2)C(=O)N([C@@H](C)CO)C[C@@H](C)[C@H](CN(C)Cc2ccc(-c4ccccc4)cc2)O3)cc1,122*
Cc1ccc(CNC(=S)NN(C)C)cc1,-9
c1cc(-c2nc3ccccc3s2)nc(-c2nc3ccccc3s2)c1,15
C[C@H]1CN([C@@H](C)CO)C(=O)c2cccc(NC(=O)c3nc4ccccc4s3)c2O[C@H]1CN(C)S(=O)(=O)c1ccc(F)cc1,59
O=C1CC(c2ccccc2)Cc2nc(NCc3ccco3)ncc21 (stereo unspecified),42
COC(=O)C(O)(CC(=O)Nc1cccc(SC)c1)C(F)(F)F (stereo unspecified),36
Cc1noc(C)c1S(=O)(=O)N(C)C[C@H]1Oc2ccc(NS(=O)(=O)c3ccc(Cl)cc3)cc2CC(=O)N([C@H](C)CO)C[C@H]1C,-4
CCNC(=S)NCC1CC1,-9
COc1cc(/C=C/C(=O)O[C@@H]2C[C@@](O)(C(=O)O)C[C@@H](O)[C@@H]2O)ccc1O,18
CC(C)NC(=O)N(C)C[C@@H]1Oc2c(NC(=O)c3ccc(-c4nccs4)cc3)cccc2C(=O)N([C@H](C)CO)C[C@@H]1C,28
C=C(C)C1Cc2c(ccc(C(=O)O)c2O)O1 (stereo unspecified),-26
Cc1ccc(S(=O)(=O)Nc2cccc3c2O[C@@H](CN(C)CC2CC2)[C@H](C)CN([C@@H](C)CO)C3=O)cc1,-25
CNC[C@H]1OCCCC[C@@H](C)Oc2ccc(NS(=O)(=O)c3c(C)noc3C)cc2C(=O)N([C@H](C)CO)C[C@@H]1C,-7
COc1ccc(NC(=O)CC(C(=O)O)N(C)C)cc1 (stereo unspecified),26
C[C@@H]1CN([C@H](C)CO)C(=O)Cc2cc(NS(=O)(=O)c3cn(C)cn3)ccc2O[C@@H]1CN(C)C,-31
Cc1c(Cl)cccc1Nc1nc(N)nc(CSCCO)n1,36
Cc1noc(C)c1S(=O)(=O)N(C)C[C@H]1Oc2ccc(NC(=O)CCCN(C)C)cc2C(=O)N([C@@H](C)CO)C[C@H]1C,32
C=CCn1c(COc2ccccc2)n[nH]c1=S,17
Cc1cc(C(=O)Nc2cccc3c2O[C@@H](CN(C)C(=O)Nc2ccc(C(F)(F)F)cc2)[C@H](C)CN([C@H](C)CO)C3=O)n(C)n1,16
C[C@@H]1CN([C@H](C)CO)C(=O)c2cccc(NS(=O)(=O)c3cn(C)cn3)c2O[C@@H]1CN(C)Cc1ccc2c(c1)OCO2,33
COc1ccc(CN(C)C[C@@H]2Oc3ccc(NC(=O)NC(C)C)cc3C(=O)N([C@@H](C)CO)C[C@@H]2C)cc1,-1
CN(C)CC(O)Cn1c2ccc(Br)cc2c2cc(Br)ccc21 (stereo unspecified),114*
O=C(Nc1ccccc1)Nc1ccc(C2SCCS2)cc1,90*
C[C@H]1CN([C@@H](C)CO)C(=O)c2cc(NC(=O)CCCN(C)C)ccc2O[C@H]1CN(C)Cc1ccc(Cl)c(Cl)c1,16
O=C1C=CC(=O)c2c(O)c(Cl)c(Cl)c(O)c21,98*
Cc1cc(OCC(=O)Nc2cccnc2)c(C)cc1Br,-11
CCC(C)C(NC(=O)C(C)(C)NC(=O)C(C)(CC)NC(=O)C(N)Cc1c[nH]c2ccccc12)C(=O)NC(=O)CCC(NC(C)=O)C(=O)O (stereo unspecified),0
C[C@@H]1CN([C@@H](C)CO)C(=O)Cc2cc(NC(=O)c3ccncc3)ccc2O[C@@H]1CN(C)Cc1ccc(C(F)(F)F)cc1,18
COc1ccc(S(=O)(=O)N(C)C[C@@H]2Oc3c(NS(C)(=O)=O)cccc3C(=O)N([C@@H](C)CO)C[C@H]2C)cc1,-18
CCN1C(=O)CCC(C(=O)O)C1c1ccc(OC)cc1 (stereo unspecified),19
C[C@@H]1CN([C@H](C)CO)C(=O)Cc2cc(NC(=O)Nc3ccc(C(F)(F)F)cc3)ccc2O[C@@H]1CN(C)Cc1ccc(-c2ccccc2)cc1,114*
C[C@@H]1CN([C@@H](C)CO)C(=O)c2cc(NC(=O)Nc3ccc(C(F)(F)F)cc3)ccc2O[C@H]1CN(C)C(=O)Nc1ccc(C(F)(F)F)cc1,105*
C[C@@H]1CN([C@H](C)CO)C(=O)c2cccc(NS(=O)(=O)c3ccc(Cl)cc3)c2O[C@H]1CN(C)C(=O)Nc1cccc2ccccc12,1
CNC[C@@H]1Oc2ccc(NC(=O)C3CCCCC3)cc2C(=O)N([C@@H](C)CO)C[C@@H]1C,8
C[C@H]1CN([C@@H](C)CO)C(=O)c2cccc(NC(=O)c3ccncc3)c2O[C@H]1CN(C)CC1CCCCC1,18
C[C@H]1CN([C@@H](C)CO)C(=O)c2cccc(NC(=O)C3CC3)c2O[C@H]1CN(C)CC1CC1,6
Cc1cc(C)c(C)c(S(=O)(=O)NCCc2c(C)[nH]c3ccccc23)c1C,28
COc1ccc([N+](=O)[O-])cc1CSc1nnc(-c2ccccc2)n1-c1ccccc1,26
Cc1noc(C)c1NC(=O)Nc1cccc2c1O[C@@H](CN(C)C(=O)Nc1ccc(C(F)(F)F)cc1)[C@@H](C)CN([C@@H](C)CO)C2=O,9
C[C@@H]1CN([C@H](C)CO)C(=O)c2cc(NC(=O)Nc3ccc(F)cc3)ccc2O[C@@H]1CN(C)S(=O)(=O)c1ccccc1,5
CNC[C@@H]1Oc2ccc(NS(=O)(=O)c3c(C)noc3C)cc2C(=O)N([C@@H](C)CO)C[C@@H]1C,2
C[C@@H]1CN([C@@H](C)CO)C(=O)c2cc(NC(=O)Nc3cccc4ccccc34)ccc2O[C@H]1CN(C)Cc1ccc2c(c1)OCO2,28
Cc1ccc(S(=O)(=O)Nc2cccc3c2O[C@H](CN(C)Cc2ccc(C(=O)Nc4ccccc4N)cc2)[C@@H](C)CN([C@@H](C)CO)C3=O)cc1,121*
O=C(CSc1ncn[nH]1)NC1CC2CCC1C2 (stereo unspecified),3
C[C@@H]1CCCCO[C@@H](CN(C)C(=O)NC2CCCCC2)[C@@H](C)CN([C@H](C)CO)C(=O)c2cc(NS(C)(=O)=O)ccc2O1,-4
COc1ccc(NC(=O)c2cc(S(=O)(=O)Nc3ccc(OC)cc3)c(Cl)cc2Cl)cc1,0
O=C(CC1NCCNC1=O)Nc1ccccc1 (stereo unspecified),-1
C[C@H]1CN([C@@H](C)CO)C(=O)Cc2cc(NC(=O)Nc3ccc(C(F)(F)F)cc3)ccc2O[C@H]1CN(C)S(=O)(=O)c1ccc(Cl)cc1,115*
CC(C)NC(=O)Nc1ccc2c(c1)CC(=O)N([C@@H](C)CO)C[C@@H](C)[C@@H](CN(C)S(C)(=O)=O)O2,8
O=C(Nc1ccccc1)N[C@H]1C[C@H](C(=O)O)Nc2cc(Cl)cc(Cl)c21,-9
# More structures follow:
SMILES,NOMO-1 viab
C[C@H](CO)N1C[C@H](C)[C@H](CN(C)C(=O)Nc2ccc3c(c2)OCO3)Oc2ccc(NC(=O)Nc3ccccc3)cc2CC1=O,-1
CC(=O)Nc1ccc(NC(=O)CN(c2ccc(F)cc2)S(C)(=O)=O)cc1,10
COc1ccc(NC(=O)Nc2ccc3c(c2)C(=O)N([C@@H](C)CO)C[C@@H](C)[C@H](CN(C)Cc2ccncc2)O3)cc1,-3
C[C@@H]1CN([C@H](C)CO)C(=O)c2cc(NS(=O)(=O)c3cccs3)ccc2O[C@H]1CN(C)C(=O)NC1CCCCC1,-2
Clc1ccccc1/C=C/C=Nc1ccc(N2CCOCC2)cc1,122*
CC1(C)CC(=O)c2c(SCC(=O)NN)sc(C#N)c2C1,8
CN(C)c1nc(N)nc(CSc2nnnn2-c2ccccc2)n1,-19
C[C@@H]1CN([C@H](C)CO)C(=O)c2cc(NC(=O)Cn3cnnn3)ccc2O[C@@H]1CN(C)Cc1ccc(C(F)(F)F)cc1,22
Cc1cc(C)nc(SCC(O)COc2ccc(Cl)cc2)n1 (stereo unspecified),-3
C[C@H]1CN([C@@H](C)CO)C(=O)c2cc(NC(=O)CCN3CCOCC3)ccc2O[C@H]1CN(C)S(=O)(=O)c1cn(C)cn1,17
O=C(CSc1n[nH]c(-c2ccc(Cl)cc2)n1)Nc1ccc(F)c(Cl)c1,20
C/C=C1\C(O[C@@H]2O[C@H](CO[C@@H]3O[C@H](CO)[C@@H](O)[C@H](O)[C@H]3O)[C@@H](O)[C@H](O)[C@H]2O)OC=C(C(=O)OC)C1CC(=O)OCCc1ccc(O)cc1 (stereo partly specified),3
CC(C)NC(=O)Nc1ccc2c(c1)C(=O)N([C@@H](C)CO)C[C@H](C)[C@@H](CN(C)C)O2,3
C[C@@H]1CN([C@@H](C)CO)C(=O)c2cc(NS(=O)(=O)c3ccc(Cl)cc3)ccc2O[C@@H]1CN(C)C(=O)Nc1ccc(F)cc1,23
Cc1ccc2c(c1)c1c(n2CCc2ccncc2)CCN(C)C1,70
Cc1noc(C)c1S(=O)(=O)Nc1ccc2c(c1)CC(=O)N([C@H](C)CO)C[C@@H](C)[C@@H](CN(C)CC1CCCCC1)O2,-9
C[C@H](CO)N1C[C@H](C)[C@H](CN(C)S(C)(=O)=O)Oc2c(NC(=O)CCCCCC(=O)Nc3ccccc3N)cccc2C1=O,-9
C[C@H]1CN([C@@H](C)CO)C(=O)c2cc(NC(=O)Nc3ccc4c(c3)OCO4)ccc2O[C@@H]1CN(C)S(=O)(=O)c1cccs1,19
C[C@H](CO)N1C[C@H](C)[C@H](CN(C)CC2CCCCC2)Oc2c(NC(=O)C3CC3)cccc2C1=O,1
O=C(c1ccccc1)N(Nc1ccccc1)c1ccccc1,37
Cc1cc(OCC(=O)Nc2cccnc2)cc(C)c1Cl,27
C[C@@H]1CN([C@H](C)CO)C(=O)c2cc(NC(=O)c3ccncc3)ccc2O[C@H]1CN(C)Cc1ccncc1,17
O=C1/C(=C\c2ccccc2)N=C2SCCCCN12,5
O=C(NC(=S)N(Cc1cccnc1)Cc1ccccc1Cl)c1ccccc1,38
C[C@H]1CN([C@@H](C)CO)C(=O)c2cc(NS(=O)(=O)c3ccc(Cl)cc3)ccc2O[C@H]1CN(C)C(=O)Nc1cccc2ccccc12,32
CCN(CC(=O)Nc1ccccc1OC)S(=O)(=O)c1ccc(Cl)cc1,30
COc1ccc(S(=O)(=O)Nc2cccc3c2O[C@H](CN(C)CC2CCCCC2)[C@H](C)CN([C@H](C)CO)C3=O)cc1,-2
C[C@H]1CN([C@@H](C)CO)C(=O)c2cc(NC(=O)NC3CCCCC3)ccc2O[C@@H]1CN(C)Cc1ccc(C(F)(F)F)cc1,32
COc1ccc([C@H]2Oc3cc(O)cc(O)c3C(=O)[C@@H]2O)cc1,12
Cc1ccc(S(=O)(=O)Nc2cccc3c2O[C@H](CN(C)Cc2ccncc2)[C@H](C)CN([C@H](C)CO)C3=O)cc1,10
Cc1cc(C(=O)Nc2cccc3c2O[C@H](CN(C)S(C)(=O)=O)[C@@H](C)CN([C@H](C)CO)C3=O)n(C)n1,-9

# Copied from the results shown, twelve compounds:
SMILES,NOMO-1 viab
O=C(c1ccccc1)N(Nc1ccccc1)c1ccccc1,37
Cc1cc(OCC(=O)Nc2cccnc2)cc(C)c1Cl,27
C[C@@H]1CN([C@H](C)CO)C(=O)c2cc(NC(=O)c3ccncc3)ccc2O[C@H]1CN(C)Cc1ccncc1,17
O=C1/C(=C\c2ccccc2)N=C2SCCCCN12,5
O=C(NC(=S)N(Cc1cccnc1)Cc1ccccc1Cl)c1ccccc1,38
C[C@H]1CN([C@@H](C)CO)C(=O)c2cc(NS(=O)(=O)c3ccc(Cl)cc3)ccc2O[C@H]1CN(C)C(=O)Nc1cccc2ccccc12,32
CCN(CC(=O)Nc1ccccc1OC)S(=O)(=O)c1ccc(Cl)cc1,30
COc1ccc(S(=O)(=O)Nc2cccc3c2O[C@H](CN(C)CC2CCCCC2)[C@H](C)CN([C@H](C)CO)C3=O)cc1,-2
C[C@H]1CN([C@@H](C)CO)C(=O)c2cc(NC(=O)NC3CCCCC3)ccc2O[C@@H]1CN(C)Cc1ccc(C(F)(F)F)cc1,32
COc1ccc([C@H]2Oc3cc(O)cc(O)c3C(=O)[C@@H]2O)cc1,12
Cc1ccc(S(=O)(=O)Nc2cccc3c2O[C@H](CN(C)Cc2ccncc2)[C@H](C)CN([C@H](C)CO)C3=O)cc1,10
Cc1cc(C(=O)Nc2cccc3c2O[C@H](CN(C)S(C)(=O)=O)[C@@H](C)CN([C@H](C)CO)C3=O)n(C)n1,-9

# Compound activity from PubChem.
